RecA intein inh = Mtb RecA intein splicing inhibitors, primary screen, biochemical, fluorescence, HTS. Protein RecA (Mycobacterium tuberculosis (strain ATCC 25618 / H37Rv)), P9WHJ3. cell-free RecA intein splicing. inhibition, %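 (about 9 µM by stock and volumes)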. 290,000 tested, 0.75% active. AID 2221, 2009; in the data active means inhibition above about 30%; inconclusive means no clear call, values can overlap the other calls;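 further: 0% = vehicle wells and 100% = reference inhibitor control wells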
Target sequence (P9WHJ3 whole entry, looked up): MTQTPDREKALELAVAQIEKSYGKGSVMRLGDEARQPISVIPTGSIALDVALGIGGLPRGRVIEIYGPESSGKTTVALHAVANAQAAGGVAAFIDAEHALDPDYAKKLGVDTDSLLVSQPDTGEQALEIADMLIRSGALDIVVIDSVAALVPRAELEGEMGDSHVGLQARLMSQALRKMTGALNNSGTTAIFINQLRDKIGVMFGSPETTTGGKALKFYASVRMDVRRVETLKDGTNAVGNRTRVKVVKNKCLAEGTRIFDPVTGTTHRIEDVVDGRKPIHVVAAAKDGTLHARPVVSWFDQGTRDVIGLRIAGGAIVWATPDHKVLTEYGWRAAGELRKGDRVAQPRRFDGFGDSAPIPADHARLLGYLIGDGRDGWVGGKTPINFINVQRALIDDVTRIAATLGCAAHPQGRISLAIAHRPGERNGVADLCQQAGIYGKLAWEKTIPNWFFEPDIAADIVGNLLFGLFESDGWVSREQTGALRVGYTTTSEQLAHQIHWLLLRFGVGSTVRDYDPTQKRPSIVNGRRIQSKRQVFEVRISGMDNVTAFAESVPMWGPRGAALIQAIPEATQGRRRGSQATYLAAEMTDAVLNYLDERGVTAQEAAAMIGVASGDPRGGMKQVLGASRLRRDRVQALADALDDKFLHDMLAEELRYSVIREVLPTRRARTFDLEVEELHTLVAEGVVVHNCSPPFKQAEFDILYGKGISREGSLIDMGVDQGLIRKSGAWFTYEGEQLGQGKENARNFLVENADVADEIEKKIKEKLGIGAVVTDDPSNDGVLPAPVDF
Arbovirus inh = antivirals against arbovirus infection, primary screen, cell-based, full library, 10K replicate subset. arbovirus infection cell-based antiviral screen. inhibition, % at 10 µM. 200,000 tested, 0.37% active. AID 1251, 2008;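 active means inhibition from about 30%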;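 further: bluetongue infection of BSR cells; cell survival read as ATP light after 72 h; 0% = infected wells without compound and 100% = uninfected wells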
Mtb betalactam = beta-lactam sensitization of Mtb H37Rv, H37Rv; 330,000 tested, 0.27% active; AID 434955, 2010; M. tuberculosis H37Rv growth with meropenem, percent inhibition; hits of this screen are not shown here; inhibition, % at 25 µM;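 active means about 74% or more and at least 40 points above the plate without the antibiotic, then above 30% in a dose series; inconclusive means first-round hits that could not be retested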;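 further: growth measured after seven days incubation then overnight dye step; 0% = bacteria only wells and 100% = bacteria with antibiotic; twin plates without the antibiotic show which effects depend on it; some results filed as inactive read as strong as hits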
Mtb H37Rv = M. tuberculosis H37Rv growth inhibitors, H37Rv strain (AID 1626); M. tuberculosis H37Rv growth inhibition; higher % means a stronger effect; inhibition, % at 10 µM; hits with a dose series show IC50 in µM; 220,000 tested, 0.95% active;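 active means confirmed in a dose series; inconclusive means inhibition above 80% but not taken into the dose series; inactive means below 80% or under 30% at every dose of the series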;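 further: bacteria incubated seven days before Alamar blue readout; 0% = bacteria only wells and 100% = bacteria with antibiotic wells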
YopH PTP inh = YopH tyrosine phosphatase inhibitors, primary screen, biochemical, fluorescence Ex485/Em525; inhibition, %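 (about 10 µM by stock and volumes)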; 140,000 tested, 0.16% active;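 active means inhibition of 50% or more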;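 further: controls were vehicle for no effect and minimum signal wells for full effect; inactives centre near -20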
Arbovirus inh repeat = second read-out of Arbovirus inh, no call of its own (marks repeat the call); inhibition, %; measured here: 10K subset replicate screen; many hits read low in the repeat;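 first of two repeat runs on a subset; 0% = infected and 100% = uninfected wells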
Numbers without * were called inactive; ? = inconclusive; . = no result given; & = joins results of further samples. The list is partial (hit frequency here may not be typical).

SMILES | RecA intein inh | Arbovirus inh | Mtb betalactam | Mtb H37Rv | YopH PTP inh | others
O=C1CCCN2N=C(SCC(=O)Nc3ccccc3C(F)(F)F)SC2=N1 | -3.4 | . | 2 | . | .
Brc1ccc(-c2nnc3sc(CNC4CCCC4)cn23)cc1 | -7.9 | 1 | 1 | 6% | -15 | Arbovirus inh repeat=6
Nc1cc(=O)[nH]c(SCC(=O)Nc2ccccc2-c2ccccc2)n1 | 0.8 | 3 | 82 | >100µM* | .
CCCCNC(=O)c1cn(CC)c2cc(N3CCN(C)CC3)c(F)cc2c1=O | . | . | -1 | -2% | .
CCOC(=O)C1=C(COC(=O)CNC(=O)c2ccc(C)cc2)NC(=O)NC1C (centres undefined) | -2.7 | . | -2 | . | .
CC(OC(=O)c1ccc(NS(=O)(=O)c2cccs2)cc1)C(=O)N(C)C1CCCCC1 (centres undefined) | 0.7 | -1 | -1 | -1% | -25
CC1(C)CC(=O)C=C(NCCO)C1 | 1.0 | 10 | -8 | -4% | -31
CCN(CC)C(=O)c1ccc2nc(-c3ccccc3)c(-c3ccccc3)nc2c1 | -0.4 | -16 | 6 | 10% | -20
COC(=O)c1sccc1NC(=O)CSc1ccccc1NC(=O)CNC(C)C | 4.3 | 9 | -4 | 1% | .
COC(=O)c1sc(SC)c2c1CC(C)(C)C/C2=N/O | . | . | -7 | -21% | .
CCOC(=O)C1=C(COC(=O)COc2ccc(OCC)cc2)NC(=O)NC1C (centres undefined) | -0.9 | . | 1 | . | .
CN1CCN(C(=O)CCCOc2ccc(Cl)cc2Cl)CC1 | 2.9 | -2 | -6 | -10% | -7
Cc1ccc(C)c(OCCCNCc2ccccc2)c1 | 2.2 | . | 1 | . | .
COCCNC(=O)c1c[nH]c2ccc(S(=O)(=O)Nc3ccc(F)cc3F)cc2c1=O | 0.8 | . | 0 | . | .
O=C(CCN1CCN(Cc2ccccc2)CC1)Nc1ccc(OCc2ccccc2)cc1 | 0.9 | -18 | 3 | 19% | -3
O=C(Nc1nccs1)c1ccccc1Br | 2.2 | . | -7 | . | .
CC1CCN(C(=O)CSc2ccc(-c3cccnc3)nn2)CC1 | 1.8 | . | 0 | . | .
CCc1cccc(C)c1NC(=S)N1CCCC1C(=O)O (centres undefined) | 1.5 | -4 | 3 | 8% | -11
CCOC(=O)CCC(=O)OCC(=O)NC(C)C1CC2CCC1C2 (centres undefined) | -0.5 | -4 | 14 | 4% | -33
c1ccc2c(CNCCN3CCOCC3)cccc2c1 | -1.5 | -5 | -1 | -1% | -29
Cc1cc(C(=O)COC(=O)C2=NN(c3ccccc3)C(=O)CC2)c(C)n1CC(F)(F)F | . | -1 | -2 | -1% | .
COc1cc(/C=C/C(=O)O)cc(S(=O)(=O)N2CCN(S(=O)(=O)c3ccc(Cl)cc3)CC2)c1OC | -16 | . | 1 | . | .
N#C/C(=C\c1ccccc1)C(=O)Nc1ccccn1 | -4.1 | . | -5 | . | .
COc1ccc(Nc2nc(Cl)nc(NCc3ccco3)n2)cc1 | -2.3 | -3 | -13 | -3% | -59
C/C(=N/NS(=O)(=O)c1ccc(C)cc1)[C@H]1C[C@@H]1c1ccccc1 | 0.7 | . | -5 | 1% | .
O=C(NCCc1ccccc1)C(=O)N/N=C/c1ccccc1C(F)(F)F | -3.2 | -14 | -9 | -4% | -44
O=C(N/N=C/c1cccnc1)c1ccccc1[N+](=O)[O-] | -3.9 | -14 | -2 | 0% | 7
C[C@H](NC(=O)CCC(=O)N1C[C@H]2C[C@H](C1)c1cccc(=O)n1C2)c1ccccc1 | 7.3 | . | -6 | . | .
COc1ccc(C(=O)CN2C(=O)NC3(CCCc4ccccc43)C2=O)cc1OC (centres undefined) | 1.5 | 9 | -6 | 1% | -80
O=C(NCc1ccco1)c1ccc(Oc2ccccc2)cc1 | . | -18 | 14 | -4% | 8
COc1ccc(/C=C/C(=O)NCc2nc3ccccc3[nH]2)cc1OC | -1.8 | -4 | 2 | 0% | .
Cc1ccccc1NS(=O)(=O)c1cc(C(=O)N2CCCC2)ccc1C | -0.2 | 4 | -3 | -5% | -43
CN(C(=O)CO/N=C/c1ccc(OC(F)F)cc1)C1CCS(=O)(=O)C1 (centres undefined) | -7.7 | 5 | -12 | 8% | .
COc1ccc(C(=O)Nc2nc3ccccc3c(=O)[nH]2)cc1 | -1.1 | 2 | -3 | -8% | -29
O=C(NCc1ccco1)c1nc2ncccn2n1 | 1.6 | 6 | 4 | -14% | -12
CCOC(=O)CN1C(=O)S/C(=C/c2cc(C)n(-c3ccccn3)c2C)C1=O | 4.1 | 2 | -3 | -2% | -16
Cc1nnc(C)n1/N=C/c1cccc(Oc2ccccc2)c1 | 4.6 | -4 | 7 | 6% | -33
O=C(NC(=S)Nc1cccc2cccnc12)c1ccccc1 | -0.6 | -9 | 97 | ? | -32
COc1ccc(/C(O)=C2/C(=O)C(=O)N(CCCN(C)C)C2c2ccc(Cl)cc2)cc1OC (centres undefined) | -1.4 | . | -4 | -6% | -98
NC(=S)N=Nc1c(O)n(CC(=O)Nc2ccccc2)c2ccccc12 | 0.2 | . | 2 | . | .

Sorted by formula weight (largest number first): part of the list above
SMILES | RecA intein inh | Arbovirus inh | Mtb betalactam | Mtb H37Rv | YopH PTP inh | others
Cc1cc(C(=O)COC(=O)C2=NN(c3ccccc3)C(=O)CC2)c(C)n1CC(F)(F)F | . | -1 | -2 | -1% | .
O=C(NCCc1ccccc1)C(=O)N/N=C/c1ccccc1C(F)(F)F | -3.2 | -14 | -9 | -4% | -44
Cc1ccccc1NS(=O)(=O)c1cc(C(=O)N2CCCC2)ccc1C | -0.2 | 4 | -3 | -5% | -43
COc1ccc(/C=C/C(=O)NCc2nc3ccccc3[nH]2)cc1OC | -1.8 | -4 | 2 | 0% | .

Later entries
SMILES | RecA intein inh | Arbovirus inh | Mtb betalactam | Mtb H37Rv | YopH PTP inh | others
Cc1cc(C)nc(CCNC(=O)c2cc(COc3ccc(F)cc3F)on2)n1 | 0.1 | 4 | 5 | -1% | .
Cc1ccc(CCC(=O)Nc2ccc([N+](=O)[O-])cc2Cl)o1 | -1.8 | . | 4 | . | .
Cc1ccc(NC(=O)COc2ccc(S(=O)(=O)N3CCOCC3)cc2)cc1 | -3.0 | 6 | -10 | 2% | -11
Cc1ccc(S(=O)(=O)N2CCCC2c2nc3ccccc3s2)cc1 (centres undefined) | -1.2 | 2 | -3 | -8% | -25
Cc1cc(N2CCOCC2)nc(N2CCOCC2)n1 | 0.0 | 0 | -12 | -11%&-9% | .
Cc1cc2c(ncn2C(C)C)c(N)c1C | -1.6 | -2 | -3 | 0% | -3
Cc1noc(C)c1C(=O)OCC(=O)NCCc1ccc(Cl)cc1 | 2.5 | -5 | -10 | -6% | -25
COCCN(C(=O)COC(=O)/C=C/c1ccc2ccccc2n1)c1c(N)n(Cc2ccccc2)c(=O)[nH]c1=O | -1.2 | . | -4 | . | .
CC(=O)NS(=O)(=O)c1ccc(N=NN2CCCCC2)cc1 | -1.0 | 2 | 3 | 22% | -31
O=C(O)CCC(=O)N1CCc2cc(S(=O)(=O)NCCc3ccc(Cl)cc3)ccc21 | 1.4 | . | -2 | . | .
Cn1c(=O)cc(SCC(=O)NCc2cccnc2)c2ccccc21 | 1.5 | -2 | 1 | -6% | -24
CC(C(=O)NCc1ccco1)c1ccc([N+](=O)[O-])cc1 (centres undefined) | -0.9 | 2 | -2 | 7% | .
O=S(=O)(/C=C/c1ccccc1)N1CCc2ccccc2C1 | 1.1 | . | 6 | . | .
CC1Cc2ccccc2N1C(=O)CSc1nnnn1C (centres undefined) | -4.0 | 5 | -2 | -4% | 2
O=C(Nc1c2ccccc2nc2ccccc12)C(Cl)(Cl)Cl | -477 | 2 | 29 | -1% | -34
CCN(CC)CCNC(=O)c1cn(CC)c2ccc(S(=O)(=O)N(C)C)cc2c1=O | 0.0 | 2 | -4 | 6% | -33 | Arbovirus inh repeat=4
CCCC(CCC)=NNC(=O)CN(Cc1ccccc1)S(=O)(=O)c1ccccc1 | -0.1 | -1 | 7 | 2% | -45
CCOC(=O)C1CCN(C(=O)/C=C/c2ccc3c(c2)OCO3)CC1 | -1.7 | . | -12 | . | .
CCc1[nH]nc(C(=O)N2CCCC(Nc3cccc(F)c3)C2)c1C (centres undefined) | 1.6 | . | -16 | . | .
C=CCN(CC=C)CCOc1ccccc1[N+](=O)[O-] | 0.4 | -4 | -3 | 3% | .
COc1cccc(CNC(=O)c2cc3ccccn3n2)c1 | 0.1 | 4 | -8 | 0% | -49 | Arbovirus inh repeat=-8
O=C(CCCN1C(=O)/C(=C\c2cccs2)SC1=S)Nc1cccc(C(=O)O)c1 | 3.0 | 15 | -1 | -5% | .
O=C(c1ccc2c(c1)OCO2)N1CCN(S(=O)(=O)c2ccc(Cl)cc2)CC1 | 3.4 | . | -3 | . | .
CC(=O)c1c(C)oc2ccc(N(C(C)=O)S(=O)(=O)c3ccc(F)cc3C)cc12 | 1.1 | . | -9 | . | .
COc1ccc(CC(=O)NNS(=O)(=O)c2ccc([N+](=O)[O-])cc2)cc1OC | 1.1 | . | 0 | . | .
COc1ccccc1CC(=O)Nc1ccc(C(=O)N2CCCCC2)cc1 | 18 | . | 6 | . | .
O=C1NC(=O)C(CCc2ccccn2)(Cc2ccc3c(c2)OCO3)C(=O)N1CCc1ccccc1 (centres undefined) | 1.5 | -1 | -2 | 1% | -8
CCOc1ccc(N(CC(=O)NCCc2ccc(F)cc2)S(=O)(=O)c2ccccc2)cc1 | 3.5 | . | ? | . | .
CC(C)(C)OC(=O)COc1cc(O)c2c(=O)cc(-c3ccccc3)oc2c1 | -2.6 | 7 | 72 | 6% | -24
S=C1NC2(CCCCC2)N=C1c1ccccc1 | 0.7 | 8 | 2 | -3% | -23
O=C(CSc1nc2c(c(=O)n1-c1ccc(F)cc1)SCC2)N1CCCC1 | 0.4 | 10 | 30 | -6% | -38
NC(=O)NNc1ncc(C(F)(F)F)cc1Cl | -6.3 | 6 | -13 | 1% | .
O=S1(=O)c2ccccc2N=NN1Cc1cc(Cl)cc(Cl)c1 | 4.4 | 13 | 4 | 13% | -14
Cc1nc(Sc2ccccc2)c(C#N)cc1-c1ccccc1 | 5.3 | 5 | 23 | -1% | -24
CC(C)Oc1ccc(C(=O)Nc2ccc(N3CCCC3)cc2)cc1 | 0.4 | 3 | 23 | 9% | -28
C=C1CCN([C@@H](Cc2ccccc2)C(=O)NCc2ccc(Cl)cc2)S(=O)(=O)c2ccccc21 | 5.7 | . | -6 | -4% | .
C[C@H](NC(=O)c1cc2cc(Cl)ccc2n1C)C(=O)N[C@@H](Cc1ccccc1)C(=O)O | -0.5 | . | -6 | . | .
O=C(c1n[nH]c2ccccc12)N1CCN(c2ccc(F)cc2)CC1 | -1.2 | 5 | -4 | 4% | .
CCCCCCC1CC(=O)NC(=O)N1 (centres undefined) | -1.4 | . | -9 | -1% | .
COc1ccccc1NS(=O)(=O)c1ccc(/C=C/C(=O)O)cc1 | 0.4 | 2 | -5 | -3% | .
CN(CCOc1ccccc1)C(=O)c1ccc(N2CCCC2)c([N+](=O)[O-])c1 | 2.1 | . | -3 | . | .
COc1ccc(-c2ccc(OC)cc2)cc1 | -2.4 | -6 | 1 | -6% | -17
O=C(c1nsc(Cl)c1Cl)N1CCCCC1 | 0.7 | 10 | -6 | -5% | -40
C/C(=N\NC(=S)NCCc1ccccc1)c1ccc(C#N)cc1 | -4.1 | 5 | -7 | -2% | -2
CC(=O)Nc1ccc(S(=O)(=O)N2CCN(S(=O)(=O)c3ccccc3)CC2)cc1 | -0.3 | . | 0 | . | .
O=C(COc1ccc(S(=O)(=O)NCCc2ccccc2)cc1)N1CCCC1 | -2.1 | -2 | 18 | -7% | 8
Cc1cccc(C)c1Nc1nc2ccccc2o1 | 2.2 | 46* | 5 | 11% | -23 | Arbovirus inh repeat=63*
CC(Oc1ccc(NC(=O)c2ccco2)cc1)C(=O)N1c2ccccc2CC1C (centres undefined) | 0.4 | -9 | -1 | -5% | -43

Among those listed so far, 2 contain bromine.
SMILES | RecA intein inh | Arbovirus inh | Mtb betalactam | Mtb H37Rv | YopH PTP inh | others
Brc1ccc(-c2nnc3sc(CNC4CCCC4)cn23)cc1 | -7.9 | 1 | 1 | 6% | -15 | Arbovirus inh repeat=6
O=C(Nc1nccs1)c1ccccc1Br | 2.2 | . | -7 | . | .

High-throughput results: PubChem BioAssay, several laboratories
